Source: PubChem (several laboratories)
XIAP antagonists: XIAP antagonists, biochemical, IAP family, fluorescence polarization (AID 1018). XIAP BIR domain, fluorescence polarization peptide displacement; higher % means a stronger effect. displacement, % at 20 µM, or IC50 in µM where a hit was titrated. actives 0.007% (n = 200,000); in the data active = displacement above about 50%; also: a part of the inactive calls stands beside numbers as strong as those of hits
TNAP activation fold: human TNAP enzyme activators, primary screen, biochemical, luminescent, no phosphate acceptor, uHTS (AID 1001); purified TNAP, luminescent activation assay, no phosphate acceptor; higher activation fold means a stronger effect; one-dose activation fold at 20 µM; EC50 in µM for titrated hits; actives 0.03% (n = 200,000); in the data active = activation fold from about 3, or a potency from the dose series; inactive = the rest, 99 in 100 with activation fold below about 1.6; also: many of its hits are not listed in these tables
P. falciparum M1AAP: P. falciparum M1AAP inhibitors, biochemical, fluorogenic H-Leu-NHMec substrate, 1536-well (AID 1445). actives 0.42% (n = 220,000). recombinant M1AAP, H-Leu-NHMec fluorogenic kinetic assay; higher % means a stronger effect. one-dose inhibition, % at 30 µM; IC50 in µM for titrated hits;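 active = primary inhibition above the hit cutoff, then over 50% inhibition at one or more dose response concentrations, cut at about 23% in these data, passing the limit was not always enough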;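 also: plate controls were DMSO full reaction for no effect and no enzyme background for full effect; strong numbers were not always called active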
WT yeast gro inh: growth inhibition of WT yeast, mitochondrial fusion screen. mitochondrial fusion phenotypic screen, WT strain. inhibition, % at 10 µM. actives 2.1% (n = 190,000); in the data active = inhibition above about 58%; tested in S. cerevisiae
Yfh1-off respiration: enhancers of respiration in Yfh1-depleted yeast, dose response, Friedreich's ataxia, plus single-dose screen (AID 1465) | S. cerevisiae Yfh1-off respiration, WST-1 reduction, 72 h; higher fold induction means a stronger effect | actives 0.074% (n = 220,000) | one-dose fold induction at 50 µM; EC50 in µM for titrated hits;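 active = fold induction of absorbance versus untreated yeast above a set limit, then at least 30% activation at any dose in follow-up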;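 also: activators that raise dye reduction in frataxin-depleted yeast; strong numbers were not always called active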
P. falciparum M17LAP: P. falciparum M17LAP inhibitors, primary screen, biochemical, fluorogenic H-Leu-NHMec substrate, 1536-well (AID 1619) | recombinant M17LAP, H-Leu-NHMec fluorogenic kinetic assay; higher % means a stronger effect | actives 0.38% (n = 220,000) | inhibition, % at 30 µM; hits with a dose series show IC50 in µM;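 active = compound inhibiting the enzyme by more than half at any dose during confirmatory dose-response retesting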;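 also: plate controls were full reaction with DMSO carrier for no effect and no enzyme background for full effect; strong numbers were not always called active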
LYP inhibition: inhibitors of LYP phosphatase, biochemical, fluorescence intensity, uHTS (AID 1779) | actives 0.054% (n = 290,000) | inhibition, % at 11.5 µM; hits with a dose series show IC50 in µM | recombinant LYP phosphatase, fluorescence intensity; higher % means a stronger effect; in the data active = inhibition above about 50%;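 also: plate controls were vehicle with enzyme for no effect and no enzyme for full effect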
WT yeast gro inh mutant strain: also measured in WT yeast gro inh; calls as there; inhibition, %; mitochondrial fusion phenotypic screen, mutant strain inhibition
* marks the source's active call; other numbers are inactive results. Only part of the results is shown; rates above refer to the full screens.

How did COc1ccccc1OC(C)C(=O)O (stereo not drawn) do in these assays?
XIAP antagonists: 0.3%; TNAP activation fold: 1.1; P. falciparum M1AAP: 16%; WT yeast gro inh: -8; Yfh1-off respiration: inactive; P. falciparum M17LAP: 18%; LYP inhibition: -10%; WT yeast gro inh mutant strain: -4

What do the screens show for `O=c1oc(-c2cccs2)nc2ccc(Br)cc12`?
XIAP antagonists: -0.1%; TNAP activation fold: 1.1; P. falciparum M1AAP: 3%; WT yeast gro inh: 18; Yfh1-off respiration: inactive; P. falciparum M17LAP: 36%; LYP inhibition: -8%; WT yeast gro inh mutant strain: 7

How did COc1ccc(/C=N/NC(=O)Cc2csc(Nc3cccc(C(F)(F)F)c3)n2)cc1C do in these assays?
XIAP antagonists: -6.6%; TNAP activation fold: 0.9; P. falciparum M1AAP: 1%; WT yeast gro inh: 26; Yfh1-off respiration: inactive; P. falciparum M17LAP: 0%; LYP inhibition: 6%; WT yeast gro inh mutant strain: 13

How did CCCC(C)c1nnc(NC(=O)c2cc(C(=O)OC)cc([N+](=O)[O-])c2)s1 (stereo not drawn) do in these assays?
XIAP antagonists: -8.4%; TNAP activation fold: 1; P. falciparum M1AAP: 5%; WT yeast gro inh: 21; Yfh1-off respiration: inactive; P. falciparum M17LAP: -8%; LYP inhibition: 18%; WT yeast gro inh mutant strain: -10

Results for COc1ccc(CCNC(=O)c2ccc(CS(=O)(=O)c3ccc(Cl)cc3)o2)cc1OC ?
XIAP antagonists: -0.7%; TNAP activation fold: 1.1; P. falciparum M1AAP: 4%; WT yeast gro inh: -23; Yfh1-off respiration: inactive; P. falciparum M17LAP: 2%; LYP inhibition: 0%; WT yeast gro inh mutant strain: -24

Results for Cc1ccc(NC(=O)c2c(C(F)(F)F)nn(C)c2Cl)cc1C ?
XIAP antagonists: -4.1%; TNAP activation fold: 1.1; P. falciparum M1AAP: -4%; WT yeast gro inh: 12; Yfh1-off respiration: inactive; P. falciparum M17LAP: -2%; LYP inhibition: -3%; WT yeast gro inh mutant strain: 9

Results for Cc1nnc(SCc2ccc(F)cc2Cl)s1 ?
XIAP antagonists: -0.5%; TNAP activation fold: 1.1; P. falciparum M1AAP: -5%; WT yeast gro inh: 27; Yfh1-off respiration: inactive; P. falciparum M17LAP: -19%; LYP inhibition: -7%; WT yeast gro inh mutant strain: 2

What do the screens show for `O=C(CSc1ccccc1C(=O)O)NCc1ccco1`?
XIAP antagonists: -2.8%; TNAP activation fold: 1.1; P. falciparum M1AAP: 8%; WT yeast gro inh: 3; Yfh1-off respiration: inactive; P. falciparum M17LAP: 16%; LYP inhibition: -3%; WT yeast gro inh mutant strain: -15

How did CCOC(=O)c1cnc(-c2ccccc2)nc1Oc1ccc(Cl)c(Cl)c1 do in these assays?
XIAP antagonists: -5.2%; TNAP activation fold: 1; P. falciparum M1AAP: -2%; WT yeast gro inh: 4; Yfh1-off respiration: inactive; P. falciparum M17LAP: 13%; LYP inhibition: -1%; WT yeast gro inh mutant strain: 19

Results for O=C(Nc1ccc(F)cc1)Nc1nnc(-c2ccncc2)s1 ?
XIAP antagonists: -0.9%; TNAP activation fold: 1; P. falciparum M1AAP: 3%; WT yeast gro inh: -1; Yfh1-off respiration: inactive; P. falciparum M17LAP: 5%; LYP inhibition: -3%; WT yeast gro inh mutant strain: -3

Results for CC1=CC(C)(C)N(C(=O)c2ccccc2)c2ccc(C)cc21 ?
XIAP antagonists: -5.9%; TNAP activation fold: 1.1; P. falciparum M1AAP: 5%; WT yeast gro inh: -1; P. falciparum M17LAP: -1%; LYP inhibition: 6%; WT yeast gro inh mutant strain: -1

How did CCOc1ccc(OC(=O)NC(c2ccccc2)C(Cl)(Cl)Cl)cc1 (stereo not drawn) do in these assays?
XIAP antagonists: -1.5%; TNAP activation fold: 1.1; P. falciparum M1AAP: 1%; WT yeast gro inh: -5; Yfh1-off respiration: inactive; P. falciparum M17LAP: -1%; LYP inhibition: -8%; WT yeast gro inh mutant strain: -3

What do the screens show for `Cc1sc2ncnc(N3CCN(c4ncccn4)CC3)c2c1C`?
XIAP antagonists: -5.5%; TNAP activation fold: 1.1; P. falciparum M1AAP: -5%; WT yeast gro inh: 53; Yfh1-off respiration: inactive; P. falciparum M17LAP: 14%; LYP inhibition: -8%; WT yeast gro inh mutant strain: 30

How did O=C(NC1CCCC1)C(c1ccsc1)N(Cc1ccccc1)C(=O)Cc1cccs1 (stereo not drawn) do in these assays?
XIAP antagonists: -1.4%; TNAP activation fold: 1.1; P. falciparum M1AAP: 2%; WT yeast gro inh: -13; P. falciparum M17LAP: -6%; LYP inhibition: -4%; WT yeast gro inh mutant strain: 7

How did O=C(COc1ccc(Cl)cc1)Nc1ccccc1CO do in these assays?
XIAP antagonists: -22%; TNAP activation fold: 1.1; P. falciparum M1AAP: 4%; WT yeast gro inh: 6; Yfh1-off respiration: inactive; P. falciparum M17LAP: -8%; LYP inhibition: -4%; WT yeast gro inh mutant strain: -8

Overlap with the part before: two entries; new compounds follow.
How did O=C(NC1CCCC1)C(c1ccsc1)N(Cc1ccccc1)C(=O)Cc1cccs1 (stereo not drawn) do in these assays?
XIAP antagonists: -1.4%; TNAP activation fold: 1.1; P. falciparum M1AAP: 2%; WT yeast gro inh: -13; P. falciparum M17LAP: -6%; LYP inhibition: -4%; WT yeast gro inh mutant strain: 7

How did O=C(COc1ccc(Cl)cc1)Nc1ccccc1CO do in these assays?
XIAP antagonists: -22%; TNAP activation fold: 1.1; P. falciparum M1AAP: 4%; WT yeast gro inh: 6; Yfh1-off respiration: inactive; P. falciparum M17LAP: -8%; LYP inhibition: -4%; WT yeast gro inh mutant strain: -8

What do the screens show for `COc1ccccc1Cn1nnc2c(=O)[nH]c(C3CCN(C(=O)c4ccc(F)cc4)CC3)nc21`?
XIAP antagonists: -5.0%; TNAP activation fold: 1.1; P. falciparum M1AAP: 4%; WT yeast gro inh: 5; Yfh1-off respiration: inactive; P. falciparum M17LAP: 11%; LYP inhibition: -5%; WT yeast gro inh mutant strain: 4

Results for CCOC(=O)NC(NC(=O)OCC)C(=O)c1ccccc1 ?
XIAP antagonists: -1.5%; TNAP activation fold: 1.1; P. falciparum M1AAP: 5%; WT yeast gro inh: -11; Yfh1-off respiration: inactive; P. falciparum M17LAP: 1%; LYP inhibition: 1%; WT yeast gro inh mutant strain: 4

Results for CN1C(=O)CC(Sc2ccccc2C(=O)O)C1=O (stereo not drawn) ?
XIAP antagonists: -0.5%; TNAP activation fold: 1; P. falciparum M1AAP: -5%; WT yeast gro inh: -5; Yfh1-off respiration: inactive; P. falciparum M17LAP: -1%; LYP inhibition: -8%; WT yeast gro inh mutant strain: 5

What do the screens show for `CCNC(=S)NNC(=O)c1csc2ccccc12`?
XIAP antagonists: -0.2%; TNAP activation fold: 1.5; P. falciparum M1AAP: 0%; WT yeast gro inh: -33; Yfh1-off respiration: inactive; P. falciparum M17LAP: -9%; LYP inhibition: 1%; WT yeast gro inh mutant strain: 7

Results for Cc1nc(NC(=O)c2ccc(Cl)cc2)sc1-c1csc(Nc2cccc(F)c2)n1 ?
XIAP antagonists: -2.7%; TNAP activation fold: 1.1; P. falciparum M1AAP: 8%; WT yeast gro inh: 23; Yfh1-off respiration: inactive; P. falciparum M17LAP: 7%; LYP inhibition: 3%; WT yeast gro inh mutant strain: -3

What do the screens show for `c1ccc(-n2cnc3cc(NCc4cccs4)ccc32)cc1`?
XIAP antagonists: -4.4%; TNAP activation fold: 0.9; P. falciparum M1AAP: 5%; WT yeast gro inh: -3; Yfh1-off respiration: inactive; P. falciparum M17LAP: 7%; LYP inhibition: 2%; WT yeast gro inh mutant strain: 4

How did CCOC(=O)c1cc2c(=O)n3ccccc3nc2n(Cc2ccco2)c1=NC(=O)c1cccnc1 do in these assays?
XIAP antagonists: -3.9%; TNAP activation fold: 1; P. falciparum M1AAP: 12%; WT yeast gro inh: 6; Yfh1-off respiration: inactive; P. falciparum M17LAP: -180%; LYP inhibition: -1%; WT yeast gro inh mutant strain: -5

How did Cc1oc2cc(O)ccc2c(=O)c1-c1cnn(-c2ccccc2)c1 do in these assays?
XIAP antagonists: -3.7%; TNAP activation fold: 1; P. falciparum M1AAP: 17%; WT yeast gro inh: -9; Yfh1-off respiration: inactive; P. falciparum M17LAP: -4%; LYP inhibition: 2%; WT yeast gro inh mutant strain: 5

How did COc1ccc(C2CC(=O)C(C=NCCN3CCOCC3)=C(O)C2)cc1 (stereo not drawn) do in these assays?
XIAP antagonists: -2.7%; TNAP activation fold: 1; P. falciparum M1AAP: 10%; WT yeast gro inh: -22; Yfh1-off respiration: inactive; P. falciparum M17LAP: -1%; LYP inhibition: -5%; WT yeast gro inh mutant strain: -16

How did N#Cc1c(Cl)nc(SCc2ccccc2)nc1-c1ccccc1 do in these assays?
XIAP antagonists: -4.2%; TNAP activation fold: 1.1; P. falciparum M1AAP: 11%; WT yeast gro inh: 6; Yfh1-off respiration: inactive; P. falciparum M17LAP: 26%; LYP inhibition: -9%; WT yeast gro inh mutant strain: 1

How did CCCNC(=O)N1CCC(C(=O)c2ccc(F)cc2)CC1 do in these assays?
XIAP antagonists: -4.5%; TNAP activation fold: 1.1; P. falciparum M1AAP: 13%; WT yeast gro inh: -17; Yfh1-off respiration: inactive; P. falciparum M17LAP: -2%; LYP inhibition: -1%; WT yeast gro inh mutant strain: -7

What do the screens show for `O=c1c2ccccc2sn1-c1ccccc1`?
XIAP antagonists: -3.7%; TNAP activation fold: 1.1; P. falciparum M1AAP: 0%; WT yeast gro inh: 95; Yfh1-off respiration: inactive; P. falciparum M17LAP: -2%; LYP inhibition: -1%; WT yeast gro inh mutant strain: 96

Results for CCOC(=O)NC(NC(=O)OCC)C(=O)c1ccc(F)cc1 ?
XIAP antagonists: -2.2%; TNAP activation fold: 1.1; P. falciparum M1AAP: 11%; WT yeast gro inh: -18; Yfh1-off respiration: inactive; P. falciparum M17LAP: 10%; LYP inhibition: -6%; WT yeast gro inh mutant strain: -35

What do the screens show for `Cc1nc(N2CCN(S(=O)(=O)c3ccccc3)CC2)c2c3c(sc2n1)CC(C)CC3` (stereo not drawn)?
XIAP antagonists: -7.5%; TNAP activation fold: 1; P. falciparum M1AAP: 5%; WT yeast gro inh: 48; Yfh1-off respiration: inactive; P. falciparum M17LAP: 1%; LYP inhibition: 9%; WT yeast gro inh mutant strain: 30

Results for O=c1c2ccccc2nc(-c2ccc(Cl)cc2Cl)n1CCCn1ccnc1 ?
XIAP antagonists: 0.1%; TNAP activation fold: 0.9; P. falciparum M1AAP: -3%; WT yeast gro inh: -7; Yfh1-off respiration: inactive; P. falciparum M17LAP: 12%; LYP inhibition: -5%; WT yeast gro inh mutant strain: -5

How did CCC(=O)NC(=S)NNC(=O)c1ccc(OC)cc1 do in these assays?
XIAP antagonists: -5.4%; TNAP activation fold: 1.1; P. falciparum M1AAP: -10%; WT yeast gro inh: -26; Yfh1-off respiration: inactive; P. falciparum M17LAP: 3%; LYP inhibition: -7%; WT yeast gro inh mutant strain: 4

Results for COc1ccc(CNC(=O)Cc2c(C(=O)O)[nH]c3ccccc23)cc1 ?
XIAP antagonists: -2.5%; TNAP activation fold: 1.1; P. falciparum M1AAP: 13%; WT yeast gro inh: -4; Yfh1-off respiration: inactive; P. falciparum M17LAP: 36µM*; LYP inhibition: -1%; WT yeast gro inh mutant strain: 2

How did CC(C)C(NC(=O)c1ccc2c(c1)OCO2)C(=O)N/N=C\c1ccco1 (stereo not drawn) do in these assays?
XIAP antagonists: -1.2%; TNAP activation fold: 1.2; P. falciparum M1AAP: 20%; WT yeast gro inh: -15; Yfh1-off respiration: inactive; P. falciparum M17LAP: -17%; LYP inhibition: 1%; WT yeast gro inh mutant strain: 0
